Bfl-1 A1 inh: inhibitors of the anti-apoptotic protein A1, read as caspase activation | MEF A1-2A-BIM cells, Caspase-Glo 3/7 luminescence, 3 h; percent of clofoctol response, vehicle zero | 330,000 tested, 0.066% active | caspase activation, % (no concentration beside the values);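 active = over half of replicate activation scores above 10%, or exactly half above 10 with the replicate mean above 10; inconclusive = replicate mean below 10 yet half the replicates above 10; inactive = over half of replicates below 10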;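 also: wells of about 30 µL received 50 nL stock; many hits fall short of the cut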
ALR inh: human ALR oxidase inhibition via reduced H2O2; P55789; purified ALR, DTT oxidation, H2O2 HRP-luminol luminescence; inhibition, % (test concentration not listed); 290,000 tested, 3.8% active;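 active = mean and each replicate at 75% or more; inconclusive = only one of the two met; inactive = neither met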;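 also: stock transfer was 7.5 nL into about 7.5 µL; 0% = neutral wells and 100% = wells with inactivated enzyme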
Beta2AR agonist: agonists of human beta-2 adrenergic receptor inducing internalization; response, % (concentration not given with the values); Am2.2-beta2AR cells, FAP receptor internalization, flow cytometry; reference of the scale not given here; 340,000 tested, 0.43% active; P07550; AID 504454;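 active = response above a set limit, near 3 SD of response in nonfluorescent compounds, cut at about 42% in these data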;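 also: stock transfer was 100 nL into about 11 µL; a reference agonist was the positive control; negative values mostly stem from fluorescent compounds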
Beta apoptosis: blocks beta cell apoptosis; INS-1E cytokine-induced death, ATP luminescence, 48 h; percent of positive-control rescue, neutral wells zero; protection from apoptosis, % (concentration not given with the values); 300,000 tested, 0.8% active; AID 435005;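 active = all replicates at 75% or more, or half of them and the mean; inconclusive = half reach 75% but not the mean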;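 also: 0% = cytokine-treated negative control wells and 100% = positive control rescue; higher means more ATP so stronger rescue from cytokine killing; wells of about 40 µL received 100 nL stock; the first replicate is given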
Calb FLC: C. albicans growth modulation with fluconazole | C. albicans CaCi-2 (fluconazole-resistant clinical isolate) + fluconazole, Alamar Blue growth, 48 h | growth inhibition, % (no concentration beside the values) | AID 1979 | 300,000 tested, 0.57% active;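 active = most replicates above 75%; inconclusive = exactly half above 75%; inactive = most below 75%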;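 also: all wells also contain fluconazole at 8 µg/ml as a sub-toxic cotreatment; 0% = median of DMSO wells and 100% = median of geldanamycin control wells; wells of about 8 µL received 7.5 nL stock; the first replicate is given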
T cruzi repl: blocks replication of Trypanosoma cruzi; T. cruzi beta-gal in NIH3T3, luminescence, 90 h; inhibition, % (concentration not given with the values); 300,000 tested, 1.4% active;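 active = mean inhibition across valid replicates above about 55%, limit read from the data; inconclusive = mean below that limit but half or more replicates reach it; inactive = mean below it, under half of replicates reach it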;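 also: signal also drops with host cell toxicity which is not excluded here; 0% = plate median of DMSO wells and 100% = zero luminescence signal; higher percent means less beta-gal luminescence so fewer parasites; stock transfer was 50 nL into about 50 µL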
rRNA inh HTS: inhibitors of bacterial rRNA selective over humanized ribosomes | GFP signal change (wild-type ribosome), % (test concentration not listed) | 350,000 tested, 1.6% active | E. coli WT GFP vs humanized-ribosome RFP mutants, fluorescence, 24 h; active compounds read low; DMSO median 0, no signal -100;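 active = significant combined selectivity score with lowered wild-type GFP, culture density cut under 30%, mutant RFP and density less affected; inactive = any of these conditions unmet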; also: one replicate is shown; some compounds called inactive have numbers as strong as hits
LANA-H2B inh: blocks KSHV LANA binding to histone H2A/H2B. 320,000 tested, 0.6% active. inhibition, % (concentration not given with the values). AID 2629. cell-free LANA-H2A/H2B peptide, fluorescence polarization. Q9QR71; in the data active = inhibition mostly above about 10%, no sharp cut-off; inactive = mostly below about 6.7%;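 also: stock transfer was 7.5 nL into about 10 µL; 0% = median of vehicle wells and 100% = median of positive control wells; one replicate is shown; the record names a cut of 25% in any replicate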
Target sequence (Q9QR71 whole entry, looked up): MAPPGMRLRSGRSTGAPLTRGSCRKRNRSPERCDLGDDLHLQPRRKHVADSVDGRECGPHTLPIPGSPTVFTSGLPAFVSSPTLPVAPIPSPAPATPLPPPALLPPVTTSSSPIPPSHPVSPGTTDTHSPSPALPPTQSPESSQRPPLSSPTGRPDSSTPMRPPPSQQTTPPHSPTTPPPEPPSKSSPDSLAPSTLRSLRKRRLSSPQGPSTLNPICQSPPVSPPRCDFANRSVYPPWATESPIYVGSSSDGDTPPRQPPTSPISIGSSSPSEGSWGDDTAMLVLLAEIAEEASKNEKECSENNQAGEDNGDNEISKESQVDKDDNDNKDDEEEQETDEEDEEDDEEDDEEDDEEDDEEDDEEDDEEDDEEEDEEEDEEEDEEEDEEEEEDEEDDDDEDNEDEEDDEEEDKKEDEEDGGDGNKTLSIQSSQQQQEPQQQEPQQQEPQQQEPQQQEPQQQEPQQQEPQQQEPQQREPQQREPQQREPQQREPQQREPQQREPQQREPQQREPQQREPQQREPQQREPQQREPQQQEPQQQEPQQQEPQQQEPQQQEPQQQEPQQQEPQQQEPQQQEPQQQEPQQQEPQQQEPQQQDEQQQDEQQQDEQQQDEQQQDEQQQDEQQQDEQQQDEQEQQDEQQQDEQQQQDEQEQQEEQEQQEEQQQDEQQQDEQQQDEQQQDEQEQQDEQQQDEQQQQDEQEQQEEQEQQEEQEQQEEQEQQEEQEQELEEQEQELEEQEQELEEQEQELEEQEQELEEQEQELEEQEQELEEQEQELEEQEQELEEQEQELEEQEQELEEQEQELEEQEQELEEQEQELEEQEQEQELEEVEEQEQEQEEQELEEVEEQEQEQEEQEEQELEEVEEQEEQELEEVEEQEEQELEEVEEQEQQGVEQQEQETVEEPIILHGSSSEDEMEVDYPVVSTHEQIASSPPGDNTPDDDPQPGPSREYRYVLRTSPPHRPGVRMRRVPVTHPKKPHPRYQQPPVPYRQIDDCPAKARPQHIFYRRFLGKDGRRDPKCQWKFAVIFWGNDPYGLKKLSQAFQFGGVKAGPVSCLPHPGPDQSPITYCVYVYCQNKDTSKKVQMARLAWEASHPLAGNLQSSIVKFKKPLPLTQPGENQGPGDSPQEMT
rRNA inh HTS OD600: also measured in rRNA inh HTS; calls as there; OD600 change, %; measured here: OD600 growth;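 optical density of the mix in the first replicate; 0 = DMSO median and -100 = no signal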
rRNA inh HTS RFP: also measured in rRNA inh HTS; calls as there; RFP signal change, %; measured here: RFP humanized mutant strains;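 first replicate; 0 = DMSO median and -100 = no signal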
* = called active by the depositor; ? = inconclusive; · = not tested or not shown; & = joins results of further samples. Only part of the results is shown; rates above refer to the full screens.

SMILES	Bfl-1 A1 inh	ALR inh	Beta2AR agonist	Beta apoptosis	Calb FLC	T cruzi repl	rRNA inh HTS	rRNA inh HTS OD600	rRNA inh HTS RFP	LANA-H2B inh
COc1cccc(CN(C)CC(=O)Nc2ccccc2C(C)C)c1	0.3	0	0	-5	-1	5	-38	-32	-8.1	-0.7
COc1ccccc1N1CCN(C2CCCN(C(=O)CCn3cncn3)C2)CC1 (stereo not drawn)	1.0	6	-2	-7	-3	-6	2	0	-0.2	-0.4
C[C@@H]1CN([C@@H](C)CO)C(=O)Cc2cc(NC(=O)Nc3ccc4c(c3)OCO4)ccc2O[C@@H]1CN(C)C(=O)NC1CCCCC1	1.2	·	0	-1	·	·	1&7	6&2	-2.6&5.3	5.5
CC(=O)c1ccc(NC(=S)N2CCCC(CO)C2)cc1 (stereo not drawn)	0.0	-2	3	-10	-34	1	0	7	5.5	0.5
COc1cccc(NC(=O)CN(C)C(=O)C(CCSC)NC(=O)c2ccco2)c1 (stereo not drawn)	0.6	·	-1	0	·	·	1	4	-2.2	-6.5
Cc1ccc(C)c(Cn2c3ccccc3c3cnn(CC(=O)NCCCN4CCCCC4)c(=O)c32)c1	0.1	-6	12	8	9	42	2	2	22	-5.8
Cc1ccc(-n2c(SCC(=O)OC(C)C)nnc2-c2ccncc2)cc1	0.0	-7	10	0	21	-2	·	·	·	1.3
Cc1ccc(OCCSc2nc3ccccc3n2CC(=O)O)cc1	0.4	·	-16	·	-3	3	-3	-2	-0.5	5.4
CCOc1ccc(NC(=O)c2nccnc2CO)cc1	-5.0	-3	2	3	-12	-7	·	·	·	-2.5
CC(=O)C1=C(O)C(=O)N(Cc2ccccc2)C1c1ccc(N(C)C)cc1 (stereo not drawn)	0.6	96*	-1	-2	3	-5	9	4	0.6	-2.1
CCOC(=O)C1=C(C)OC(N)=C(C#N)C1c1ccsc1 (stereo not drawn)	-0.4	-22	8	3	-7	-6	6	-4	0.7	2.5
O=C(N/N=C/c1coc2ccccc2c1=O)c1cccc([N+](=O)[O-])c1	-1.4	2	7	-9	6	1	14	12	-1.0	0.4
CCC(C)(C(=O)NC1CCCCC1)N(C(=O)c1ccccn1)c1ccccc1 (stereo not drawn)	-0.8	-10	1	-3	0	-8	·	·	·	0.2
Cc1ccc2c(c1)c1c(c(=O)n(-c3ccccc3)c(=O)n1CC(=O)NCC1CCCO1)n2C (stereo not drawn)	0.0	-2	-6	·	-10	8	5	9	-0.4	-0.5
COc1ccc(NS(=O)(=O)c2cccc(C(=O)N3CCCCCC3)c2)cc1	0.8	0	3	2	-5	14	-5	-10	1.5	-3.8
Cc1cccc(-c2nnc(NC(=O)c3ccc(N4C(=O)CCC4=O)cc3)s2)c1	-0.6	-10	-2	-3	-3	-26	7	19	9.5	-5.7
S=c1[nH]nc(-c2ccccc2)o1	-0.9	·	-10	-1	2	-8	·	·	·	0.2
Cc1c(C(=O)N(C)CCC#N)oc2ccc(S(=O)(=O)N3CC(C)CC(C)C3)cc12 (stereo not drawn)	-0.1	-4	7	5	51	3	-3	-13	9.5	4.9
CCC(C)(C)n1nnnc1C(c1ccc(C)cc1)N1CCN(Cc2cccnc2)CC1 (stereo not drawn)	0.0	·	6	·	-4	11	·	·	·	-3.1
CCc1cc(-c2[nH]ncc2-c2ccc(OC)cc2)c(O)cc1O	4.0	29	-6	-12	-6	20	-50	-75	-10	-4.8
COc1ccc(NC(=O)CSc2nnc(C)n2C2CC2)cc1S(=O)(=O)N1CCOCC1	-0.5	·	-7	-1	·	·	6	9	4.7	3.5
CN(C(=O)CSc1n[nH]c(N)n1)C1CCCCC1	0.9	·	0	-2	·	·	8	4	2.0	-1.3
C(=N\Nc1ccccc1)/c1nc2ccccc2s1	-3.8	·	-5	-6	-33	1	0	2	-2.5	3.4
CCOc1ccc(C(=O)N2CCN(S(=O)(=O)c3cccs3)CC2)c(OCC)c1	0.7	9	-1	-6	-13	-2	-5	-9	-0.8	-5.4
Cc1nn(C)cc1CN(C)C(=O)c1nn2c(c1Cl)NC(c1cccs1)CC2C(F)(F)F (stereo not drawn)	0.5	-1	2	0	10	-17	·	·	·	2.4
COc1ccc([C@H]2/C=C\CN(C(=O)C3CC3)[C@@H](C)C(=O)N2Cc2ccc(F)cc2)cc1	1.2	-2	-3	-4	1	-4	-10	-14	-0.4	5.6
CCN(CC)C(=O)CSCC(=O)Nc1ccccc1	0.4	-6	2	10	-7	-15	·	·	·	-5.0
Cc1cc(S(=O)(=O)NC[C@H]2O[C@@H](n3cnc4c(N)ncnc43)[C@H](O)[C@@H]2O)c(C)s1	0.6	·	-3	-5	·	·	-2	2	-1.6	1.1
Cc1ccc(CCN2C(=O)c3ccccc3C2C(=O)NCc2cccnc2)cc1 (stereo not drawn)	1.0	·	2	-1	0	3	-38*	-6.8*	-7.3*	-2.9
O=C(Cc1ccc(-n2c(=S)[nH]c3ccccc3c2=O)cc1)N1CCN(c2ccccc2)CC1	-0.3	0	-22	6	?	6	·	·	·	-1.9
CCOc1ccc(-n2c(SCC(=O)Nc3cc(C(=O)O)ccc3Cl)nc3ccccc3c2=O)cc1	-0.3	-3	0	5	1	-5	-2	-1	0.6	2.0
COc1ccccc1NC(=O)N1CCCC1C(=O)NCc1ccccc1F (stereo not drawn)	0.2	-13	3	-3	-20	-7	·	·	·	-1.5
Cc1ccsc1/C=N/NC(=O)CNC(=O)c1ccco1	0.0	-4	-5	-3	-8	-4	3	6	-4.7	-2.3
Nc1ccc2oc(-c3cccc(Br)c3)nc2c1	0.6	27	-2	-4	6	5	·	·	·	-4.1
CCc1cc2cc(C(=O)Nc3ccc(C)cc3)sc2s1	-0.5	·	31	3	1	3	·	·	·	5.8
CCOc1ccc2oc(-c3ccccc3)c(C(=O)N(C)C)c2c1	2.5	·	-1	-4	-1	15	-26*	-4.9*	0.3*	2.5
COc1ccccc1Cn1c(C)nc2ccccc21	0.0	4	-9	4	-2	-7	-12	4	-0.6	0.2
CSc1nc(Oc2ccc(C)cc2)cc(C(F)(F)F)n1	1.0	0	-2	5	4	5	·	·	·	-6.5
CS(=O)(=O)c1ccc2nc(NC(=O)c3ccc(=O)[nH]c3)sc2c1	-1.1	-2	3	5	0	-7	8	7	-2.6	0.2
N#Cc1c(N)nc2c(c1-c1ccccc1)CCCC2	0.4	-9	8	-2	20	-2	10	-4	2.2	1.8
C/C(=N\NC(=O)c1cccc(S(=O)(=O)N2CCOCC2)c1)c1ccc(OC(F)F)cc1	0.4	·	2	-8	0	15	4	8	1.8	·
Cc1ccc(C2C(C#N)=C(N)Oc3n[nH]c(C)c32)cc1 (stereo not drawn)	-0.1	·	0	-4	8	-12	·	·	·	4.5
Nc1nonc1C(=Nc1ccccc1)NO	-0.6	53	4	0	-1	-24	·	·	·	-1.6
CCn1c(SCC(=O)c2ccc3c(c2)Cc2ccccc2-3)nnc1-c1ccc(N)cc1	0.5	-2	-2	-8	-15	-7	·	·	·	0.9
COc1ccc(NC(=O)N(C)C[C@H]2Oc3c(NS(=O)(=O)c4ccc(F)cc4)cccc3C(=O)N([C@H](C)CO)C[C@@H]2C)cc1	0.1	-2	-6	?	·	·	-1&-3	3&4	-0.4&-5.5	10
COc1ccccc1CNC(=O)c1cc(C(=O)CC(C)C)c[nH]1	0.0	-6	1	1	-7	-5	4	0	1.7	0.2
CC(C)CC(=O)Nc1ccnn1C1CCN(C(=O)c2ccccc2F)CC1	1.2	0	3	-2	2	-7	14	7	-1.5	-3.0
CN1CCCN(Cc2nc(-c3cccc(C(F)(F)F)c3)no2)CC1	-0.1	0	3	-3	-14	-1	·	·	·	0.4
Nc1nc2ccc([N+](=O)[O-])c(N)c2s1	0.8	15	10	-10	6	-5	·	·	·	4.8
CCOc1cc(C(=S)N2CCN(C)CC2)ccc1OCC(=O)N1CCOCC1	0.0	-7	8	0	-8	-6	·	·	·	1.1
COC(=O)c1cc(NC(=O)c2ccoc2C)cc(C(=O)OC)c1	-0.7	-3	3	-5	6	2	·	·	·	0.0
Cc1ccc(CNC(=O)CCS(=O)(=O)c2ccc3c(c2)NC(=O)CS3)cc1	0.4	1	6	-3	2	-12	-1	8	1.2	0.1
CC(C)(C)c1ccc(OCC(=O)N(c2ccccn2)C2CCCCC2)cc1	0.6	-4	-6	-1	-1	6	-7	0	-0.1	0.6
CCOC(=O)c1ccc(NC(=O)c2c(NCc3ccccc3)[nH]c(=O)[nH]c2=O)cc1	-0.1	-3	·	-17	-1	-14	0	5	3.7	-2.8
CC(NC(=O)c1cccc(S(=O)(=O)N(C)c2ccccc2)c1)c1cccnc1 (stereo not drawn)	0.3	-13	-7	3	·	·	-8	-12	-0.9	-0.6
CCOC(=O)c1c(NC(=O)CCC(=O)O)sc2c1CCCCC2	0.9	2	1	-9	9	-5	·	·	·	-1.2
CCOC(=O)c1ccc(NC(=O)CCc2nc(-c3ccc(C)cc3)no2)cc1	1.6	·	-3	-5	-22	15	·	·	·	2.1
Cc1sc(NC(=O)/C=C/c2ccc3c(c2)OCO3)nc1-c1ccccc1	-0.2	-7	6	15	4	24	·	·	·	1.5
CN(c1ccc(C(=O)Nc2ccc3c(c2)OCO3)cc1)S(C)(=O)=O	-7.0	-6	10	4	1	8	7	12	17	-2.8
COc1ccc(CCN2CC(C(=O)NCCCn3nc(C)cc3C)CCC2=O)cc1 (stereo not drawn)	0.5	-22	2	7	1	-11	3	0	0.5	0.4

Continued:
SMILES	Bfl-1 A1 inh	ALR inh	Beta2AR agonist	Beta apoptosis	Calb FLC	T cruzi repl	rRNA inh HTS	rRNA inh HTS OD600	rRNA inh HTS RFP	LANA-H2B inh
O=C(c1ccc2c(c1)OCO2)N1CCN(c2ccccc2F)CC1	0.1	·	7	-4	-17	-10	·	·	·	-2.3
COC(=O)c1cccc(NC(=O)Cn2cnc3ccccc3c2=O)c1	-0.2	5	2	-4	-26	0	9	5	2.2	-8.0
CC(C)[C@H](NC(=O)N1CCn2c1nc1ccccc12)C(=O)N[C@H](Cc1ccccc1)C(=O)O	1.2	-5	-1	-4	-4	-2	-1	5	1.8	8.1
CC(C)c1ccc(N(C(=O)C(F)(F)F)C(C(=O)NC2CCCCC2)c2ccncc2)cc1 (stereo not drawn)	0.3	-2	-3	-4	-3	2	13	2	3.4	0.3
COc1cccc(/C=C/C(=O)c2ccc(NS(=O)(=O)c3ccc(C)cc3)cc2)c1	-0.1	9	15	4	?	10	·	·	·	1.4
COc1ccc(/C=N/NC(=O)c2nnn(-c3nonc3N)c2CN(C)c2ccccc2)cc1	0.8	-13	16	2	8	-4	-2	-1	1.2	-1.2
CC(=O)NC(=S)Nc1cc(C(F)(F)F)ccc1N1CCOCC1	1.1	-1	-10	1	39	13	·	·	·	-6.0
O=C(c1ccncc1)N1CCN(S(=O)(=O)c2ccc(F)cc2)CC1	-0.1	0	8	1	3	-16	4	0	0.5	-0.3
